MgrA DNA FP – S. aureus MgrA-DNA binding modulation; fluorescence polarization; actives 0.13% (n = 84,000); inhibition, %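 (about 10 µg/mL by stock and volumes)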;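 active means above 50% in either of two replicates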;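 further: 0% = protein plus DNA without compound and 100% = DNA alone without protein; higher means less MgrA bound to DNA so lower polarization; one replicate is shown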
Sa helicase inh – S. aureus DNA helicase inhibition. actives 0.05% (n = 120,000). purified S. aureus helicase, fluorescence unwinding assay; about half of the hits fall short of the stated cut. inhibition, %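 (tested at about 80 µM)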. AID 485395;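 active means both duplicates at 50% or more, or one of them with a favoured structure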;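 further: 0% = mean of negative control wells and 100% = mean of positive control wells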
The depositor's hits bear a star; x = not tested or not shown; & = joins results of further samples. An excerpt; the hit share may differ from the screen's.

MgrA DNA FP	Sa helicase inh	molecule
x	-47	CC1=C(c2ccc(C)c(C)c2)S(=O)(=O)NC1=NCC(=O)NCc1ccc(C)o1
x	3	CCOC(=O)N1CCC(NC(=O)c2cnc3n(c2=O)CCS3)CC1
x	2	Cc1csc(SCC(=O)N(C)Cc2ccc(F)cc2)n1
-4.3	9	CCc1c(C(=O)O)c2ccccc2[nH]c1=O
-0.8	-5	CCc1ccc(NC(=O)N(Cc2cccc(OC)c2)C2CCN(CC)CC2)cc1
x	27	O=Nc1[nH]c2ccc(Br)cc2c1O
-0.9	x	Cc1nc(-c2ccccc2)sc1-c1nnc(C2CC2)o1
x	6	O=C(CCCN=C1NS(=O)(=O)c2ccccc21)Nc1ccc2c(c1)CCC2
-1.6	5	CCOc1ccc(NC(=O)COC(=O)C(C)C)cc1
4.0	x	CC(C)(CC(=O)O)CC(=O)Nc1ccc(Oc2ccc(C(C)(C)C)cc2)nc1
x	8	Cc1noc(C)c1COc1cccc(C#N)c1
1.8	x	COc1cc(C2C(C(=O)OCC3CCCO3)=C(C)NC3=C2C(=O)CC(C)(C)C3)ccc1OCc1ccccc1 (configuration not stated)
5.0	x	C=CCN(CC=C)c1nn[nH]n1
x	-22	CCc1ccc2oc(-c3ccc(NC(=O)CC(C)C)cc3)nc2c1
x	-13	O=C(O)c1nn(CC(=O)N2N=C3/C(=C/c4ccco4)CCCC3C2c2ccco2)c(=O)c2ccccc12 (configuration not stated)
x	5	O=S(=O)(Cc1ccccc1)c1nnnn1-c1ccccc1

Sorted by molar mass (ascending): some entries from above
MgrA DNA FP	Sa helicase inh	molecule
5.0	x	C=CCN(CC=C)c1nn[nH]n1
-4.3	9	CCc1c(C(=O)O)c2ccccc2[nH]c1=O
x	8	Cc1noc(C)c1COc1cccc(C#N)c1
x	27	O=Nc1[nH]c2ccc(Br)cc2c1O
-1.6	5	CCOc1ccc(NC(=O)COC(=O)C(C)C)cc1
-0.9	x	Cc1nc(-c2ccccc2)sc1-c1nnc(C2CC2)o1
x	5	O=S(=O)(Cc1ccccc1)c1nnnn1-c1ccccc1
x	2	Cc1csc(SCC(=O)N(C)Cc2ccc(F)cc2)n1
x	-22	CCc1ccc2oc(-c3ccc(NC(=O)CC(C)C)cc3)nc2c1
x	3	CCOC(=O)N1CCC(NC(=O)c2cnc3n(c2=O)CCS3)CC1
x	6	O=C(CCCN=C1NS(=O)(=O)c2ccccc21)Nc1ccc2c(c1)CCC2
4.0	x	CC(C)(CC(=O)O)CC(=O)Nc1ccc(Oc2ccc(C(C)(C)C)cc2)nc1
-0.8	-5	CCc1ccc(NC(=O)N(Cc2cccc(OC)c2)C2CCN(CC)CC2)cc1
x	-47	CC1=C(c2ccc(C)c(C)c2)S(=O)(=O)NC1=NCC(=O)NCc1ccc(C)o1
x	-13	O=C(O)c1nn(CC(=O)N2N=C3/C(=C/c4ccco4)CCCC3C2c2ccco2)c(=O)c2ccccc12 (configuration not stated)
1.8	x	COc1cc(C2C(C(=O)OCC3CCCO3)=C(C)NC3=C2C(=O)CC(C)(C)C3)ccc1OCc1ccccc1 (configuration not stated)

(more compounds)
MgrA DNA FP	Sa helicase inh	molecule
x	-5	Cc1cc(NS(=O)(=O)c2ccc(NS(=O)(=O)CC34CCC(CC3=O)C4(C)C)cc2)no1 (configuration not stated)
x	-13	Cc1cc2c(cc1S(=O)(=O)NCCN1CCCCCC1)OCC(=O)N2
x	4	Cc1ccc(C2=NN(C(=O)CNc3ccccc3C#N)C(c3ccco3)C2)cc1 (configuration not stated)
x	6	COc1ccc(C(=O)CCC(=O)O)c(C)c1
x	11	Cc1[nH]c2ccc3c(ncn3CCC#N)c2c1C
-0.3	15	[O-]/C(=C(\C(=S)Nc1ccccc1)[n+]1ccccc1)c1ccccc1
-2.0	x	CS(=O)(=O)NCc1ccc(Cl)cc1
x	-12	O=C(CNC(=O)c1ccccc1F)NC1CCN(Cc2ccccc2)CC1
x	-2	Cc1cc(C)c(C(=O)COc2ccccc2O)cc1C
x	11	O=C1CSc2ccc(C(=O)NCCN3CCCCCC3)cc2N1
3.5	x	COc1ccccc1Nc1nc2nonc2nc1Nc1cccc(Br)c1
-0.9	8	COC(=O)C1=C(O)CSC1=Nc1cccc(C(F)(F)F)c1
0.0	0	Cn1c(Cc2ccc(Cl)cc2)nc2ccccc21
x	-5	Cc1cc(-c2ccc(C)c(S(=O)(=O)Nc3cccc(C(F)(F)F)c3)c2)on1
x	-9	Cc1noc(C)c1COc1cc2ccccc2cc1C(=O)NCC(F)(F)F
-3.1	2	CCc1ccc(N2C(=O)Nc3ccccc3N2O)cc1
0.6	5	CC1CCC(C2NC(=O)c3ccccc3O2)CC1 (configuration not stated)
x	7&11	Cc1cc(=O)n(-c2nc3ccccc3[nH]2)[nH]1
1.2	-46	CCN(CC)c1ccc(C=C(C#N)C#N)c(OC(C)=O)c1
x	12	O=C1Nc2ccccc2O/C1=C\c1ccc(C(=O)NCCCN2CCOCC2)cc1
0.0	5	COc1ccccc1-n1cnc2cc(N=Cc3ccccc3O)ccc21
x	7	O=C1C2ON(c3ccc(Br)cc3)C(c3cccnc3)C2C(=O)N1C1CCCCC1 (configuration not stated)
x	-10	CN1CC=C(/C=C/c2ccccc2)CC1
x	-39	O=C(O)C1C2CCCCC2=C2CCCCC2C1C(=O)c1ccccc1 (configuration not stated)
x	19	O=C(NCc1ccc(Cl)cc1)c1ccc2c(=O)n3c(nc2c1)CCCCC3
x	32	CC(C)NC(=O)CCn1cnc2onc(-c3ccc(F)cc3)c2c1=O
x	-26	COC(=O)c1cc(S(=O)(=O)N2CCCCCC2)c[nH]1
-0.1	12	COc1ccc(C2C(C(=O)N3CCCCC3)c3ccccc3C(=O)N2c2ccc(OC)cc2)cc1 (configuration not stated)
3.1	14	O=C(Sc1nc(-c2ccccc2)c(-c2ccccc2)[nH]1)c1cccs1
4.5	22	O=C1OCC(c2ccc(Cl)s2)=C1c1cccs1
-1.0	x	COC(=O)C1=C(C)NC2=C(C(=O)CC(c3ccc(Cl)cc3)C2)C1c1cc2c(cc1Br)OCO2 (configuration not stated)
x	-25	O=C(Cn1ncc2c1-c1ccccc1OC2)NCc1ccccc1
0.3	x	CO/C=C(/Oc1ccc(Cl)cc1Br)C(=O)OC
-1.1	10	COc1ccc(C2C(Oc3ccc(Cl)cc3C)C(=O)N2c2ccc(C)c(C)c2)cc1OC (configuration not stated)
x	3	CCOc1ccccc1CNS(=O)(=O)c1cnc[nH]1
x	-11	CC(=O)NCCN=Cc1c(O)[nH]c(=O)[nH]c1=O
x	-8	Cn1c(SCc2nc3ccccc3s2)nnc1-c1ccncc1
x	12	Cc1cccc(CSc2nc(N)cc(=O)[nH]2)c1
x	24	c1ccc2c(c1)Nc1cc3ccccc3cc1O2
0.2	14	Cc1cc(NC(=O)c2ccc3c(c2)NC(=O)c2ccccc2S3)ccc1Br
-2.3	-1	CC(CN1CCCCC1)C(=O)NN (configuration not stated)
2.0	8	Cc1ccccc1NS(=O)(=O)Cc1ccccc1
0.2	x	COc1cccc(C2C3=C(CCCC3=O)OC3=C2C(=O)CCC3)c1OC
1.1	3	CCOC(=O)C1=C2SCCN2C(=O)C(C#N)C1(C)C (configuration not stated)
-3.3	x	Cc1cc(S(=O)(=O)/N=C/N(C)C)c(Cl)cc1Cl
x	4	O=C(Cc1cccc(C(F)(F)F)c1)Nc1nnc(-c2ccccc2)o1
x	5	O=C(OCc1nc2ccccc2s1)[C@@H]1CCCN1S(=O)(=O)c1ccc(Cl)cc1
x	4	O=S(=O)(Nc1ccccc1)c1ccc(N2CCCCS2(=O)=O)cc1
-2.9	x	COC(=O)c1ccc2nccnc2c1
0.1	12	O=C(O)c1ccc(CNCc2ccc(Cl)cc2)cc1
-0.4	9	COc1ccc(NC(=O)CCn2c(=O)oc3ccccc32)cc1
x	2	N#Cc1ccc(C(=O)N2CCN(c3ccccc3)CC2)cc1
x	-7	Cc1onc(-c2ccccc2Cl)c1C(O)c1ccc(F)cc1 (configuration not stated)
1.9	20	Cc1ccc(CCNc2ccccc2)cn1
x	-15	CC1CCN(CC(=O)Nc2ccc(S(N)(=O)=O)cc2)CC1
x	3	Cc1cc(Nc2ccccc2)n(C)n1

Other compounds.
MgrA DNA FP	Sa helicase inh	molecule
1.7	x	Cc1cc(S(=O)(=O)Nc2ccc(F)c(Cl)c2)cc(C)c1F
0.5	2	O=C(NCc1ccccn1)c1cc2n(n1)C(C(F)(F)F)CC(c1ccco1)N2 (configuration not stated)
x	-12	Cc1cn2c(CC(=O)O)csc2n1
0.5	3	Cc1cccc(NC(=O)/C(=C\c2ccco2)NC(=O)c2cccs2)c1
x	-9	O=C(COC(=O)C1=NN(c2ccccc2)C(=O)CC1)NC1CCCC1
2.6&3.7	x	Cc1cc(=O)n(-c2ccccc2)n1C
x	-17	Cc1cc(C)nc(SCC(=O)OCc2nnc(-c3ccccc3)o2)n1
-5.4	9	O=C(O)C1CCCN(c2ncnc3c2sc2cccc(F)c23)C1 (configuration not stated)
0.9	0	COc1cc(OC)cc(C(=O)NCCSc2ccccc2)c1
x	29	N#Cc1c(N)sc(=S)c2c1CCCC2
1.7	9	CCn1c(-c2cc(C)n(C)n2)n[nH]c1=S
0.7	18	CCCN(C(=O)C1CC1)c1nnc(-c2ccc(Cl)cc2)s1
x	-10	O=C1NC2(CCCCCC2)C(=O)N1CCOc1cccc(Cl)c1
x	18	Cc1ccc(C)c(N2CCN(C(=O)Cn3ncc4ccccc43)CC2)c1
x	15	Cc1ccc(C)c(S(=O)(=O)N2CCN(C(=O)[C@H](C)N3C(=O)C4CC=CCC4C3=O)CC2)c1 (some centres not stated)
x	1	Cc1cc(SCC(=O)c2ccccc2)n2nc(C)nc2n1

Two records picked at random from the list so far, as already listed:
MgrA DNA FP	Sa helicase inh	molecule
x	11	O=C1CSc2ccc(C(=O)NCCN3CCCCCC3)cc2N1
1.1	3	CCOC(=O)C1=C2SCCN2C(=O)C(C#N)C1(C)C (configuration not stated)

(list continues)
MgrA DNA FP	Sa helicase inh	molecule
x	18	Cc1sc(N=Nc2c(O)[nH]c(=O)[nH]c2=O)c(C#N)c1C
2.1	7	COc1cccc2s/c(=N/C(=S)NC(=O)c3ccc(C)cc3)n(C)c12
2.7	12	Cc1ccc(C(=O)Nc2cc3ccccc3oc2=O)cc1
1.9	x	COC(=O)/C=C1\S/C(=N\c2ccccn2)N(c2ccc(Cl)cc2)C1=O
9.7	5	CC1CCCCN1CCNC(=O)Cn1ncc2c1-c1ccccc1OC2 (configuration not stated)
x	-7	Cc1ccc(S(=O)(=O)[N-]c2nc3ccccc3nc2-n2cc[n+](C)c2)cc1
x	9	O=C(Cn1c(=O)oc2cc(Cl)ccc21)N1CCN(c2ccccc2)CC1
x	-5	CCOc1ccccc1OCCC(=O)O
-0.9	x	Cc1ccc(S(=O)(=O)CCc2nnc(NC(=O)c3ccc(Br)cc3)s2)cc1
-1.0	-2	CC1Cc2ccccc2N1C(=O)c1ccc(S(=O)(=O)N2CCCCC2)cc1 (configuration not stated)
1.5	16	COc1cccc(N2CCN(C(=O)c3cc4c(Cl)nc5ccc(C)cc5c4s3)CC2)c1
1.2	6	O=C(Nc1ccc(Cl)cc1C(=O)Nc1cccc(Cl)c1)c1ccco1
x	8	O=C(CN1CCN(S(=O)(=O)c2ccc(F)cc2)CC1)Nc1ccc(F)c(F)c1
3.0	x	CC1CCC(C(C)C)C(N)C1 (configuration not stated)
x	10	C=CCc1cccc2cc(C(=O)NC(C)c3ccccc3)c(=O)oc12 (configuration not stated)
x	15	CCOC(=O)N1CCN(S(=O)(=O)N2CCC(C(=O)O)CC2)CC1
-0.8	x	O=C(Oc1ccccc1)c1cccc(C(=O)Oc2ccccc2)c1F
2.5	x	Cn1c(=O)[nH]c(=O)c2c1nc(N1CCCCCC1)n2CC(O)COc1ccc([N+](=O)[O-])cc1 (configuration not stated)
15	-72	CCOc1ccc(N=Cc2sc3ccccc3c2O)cc1
0.5	x	CCC(C)NC(=O)c1cc(C(=O)c2ccccc2)c[nH]1 (configuration not stated)
x	5	COc1ccccc1-c1coc2cc(OCC(=O)O)ccc2c1=O
3.9	8	COc1cccc(C2CC(c3cccs3)=NN2C(=O)CSc2nncn2C)c1OC (configuration not stated)
-12	x	O=C(CCN1CCN(C(c2ccccc2)c2ccccc2)CC1)c1ccccc1
2.9	-12	OC1(Cc2ccccc2)CCCCC1
x	0	COc1ccc(Nc2ncc(-c3cc4cc(OC)ccc4oc3=O)s2)cc1
4.2	0	CCC(=O)N(Cc1ccco1)c1nc(-c2ccccc2)cs1
x	5	CCOc1ccc(NC(=O)c2cc3oc(C)cc3n2Cc2ccc(C)cc2)cc1
-1.2	x	CC(C)(C)S(=O)(=O)/C(C#N)=C/N1CCN(C(c2ccccc2)c2ccccc2)CC1
1.6	x	CC1(C)S[C@@H]2[C@H](NC(=O)COc3ccccc3)C(=O)N2[C@H]1C(=O)O
3.2	7	COc1ccc(NC(C)=S)cc1C
x	6	Cc1c(CO)[nH]c2ccc(F)cc12
-1.3	5	O=C(COc1ccc2oc3c(c2c1)CCCC3)Nc1ccncc1
-0.5	x	Cc1csc2nc(CSc3nc4ccccc4s3)c(Br)n12
x	-11	CN1CCN(S(=O)(=O)c2cccc(C(=O)Nc3cc(C(F)(F)F)cc(C(F)(F)F)c3)c2)CC1
-16	x	CC(=O)CSc1ccc(C(F)(F)F)cc1[N+](=O)[O-]
x	-15	CC1CCNC(c2cccn2C)CC1 (configuration not stated)
-0.1	-2	CC(C)(C)c1ccc2c(c1)CN(c1cccc(C(=O)O)c1)CO2
x	-6	Oc1c(C(Nc2ccccc2)c2ccccn2)ccc2cccnc12 (configuration not stated)
-2.2	12	O=C1CCCC2=C1C(c1cccc3ccccc13)C1=C(CCCC1=O)N2
-3.4	3	O=C(O)CCCc1ccc(F)cc1
x	-1	CC(C)C1c2cccn2CCN1C(=O)Nc1ccccc1 (configuration not stated)
x	-26	Cc1ccc(CSc2nc3nccnc3c(=O)n2CCC(C)C)cc1
0.0	3	O=C(CCc1ccccc1)N1CCN(c2ccccc2)CC1
x	-21	CC(Sc1cccc2cccc(C(=O)O)c12)C(=O)O (configuration not stated)

Screens as filed in PubChem.
